Six1-Eya2 inh – qHTS Assay for Inhibitors of the Six1/Eya2 Interaction; Homeobox protein SIX1 (Homo sapiens) + Protein phosphatase EYA2 (Homo sapiens), …; AlphaScreen GST-Six1/His-Eya2 binding, biochemical; stronger effect = lower value; control for the full effect not named in the record; activity change, % (concentration not given with the values); 360,000 compounds, 0.56% hits; AID 651725, 2012; in the data active = activity change below about -65%; inconclusive = about -30% to -65%; inactive = above about -30%; note: % is set by controls: 0 for no effect and ±100 for the full control effect
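Six1/Eya2 binding was read as AlphaScreen signal after compounds were pinned into GST-Six1 plus His-tagged Eya2 (5X stock 250/500 nM) in pH 8.0 Tris/NaCl/TCEP buffer, beads added, then incubated 1 h, 37 C, dark.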
D2 potentiator – Beta-Arrestin HTS for Positive Allosteric Modulators of the Human D2 Dopamine Receptor: Potentiators. D(2) dopamine receptor (Homo sapiens), P14416. DiscoveRx D2 beta-arrestin cells, luminescence, 90 min; 100% = 57 uM dopamine signal. potentiation, % (no concentration beside the values). 360,000 compounds, 0.23% hits. AID 624464, 2012; active = potentiation of 50% or more; inconclusive = 30% to 50%; inactive = 30% or less;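 note: compound concentration not given in the record; tested on top of an EC20 dose of dopamine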
Target sequence (P14416 whole entry, looked up): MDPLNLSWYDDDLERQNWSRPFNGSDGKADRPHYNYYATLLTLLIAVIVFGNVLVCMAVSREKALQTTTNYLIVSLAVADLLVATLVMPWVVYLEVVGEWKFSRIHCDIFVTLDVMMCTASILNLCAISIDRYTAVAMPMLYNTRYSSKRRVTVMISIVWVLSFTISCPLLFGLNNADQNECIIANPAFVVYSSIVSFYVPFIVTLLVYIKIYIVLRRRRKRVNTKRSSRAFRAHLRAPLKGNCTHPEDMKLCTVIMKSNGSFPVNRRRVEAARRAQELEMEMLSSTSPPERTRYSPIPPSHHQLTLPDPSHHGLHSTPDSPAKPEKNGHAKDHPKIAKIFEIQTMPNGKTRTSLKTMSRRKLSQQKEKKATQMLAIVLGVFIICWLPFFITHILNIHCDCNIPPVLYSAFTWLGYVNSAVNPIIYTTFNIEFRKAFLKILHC
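D2 cells co-treated with compound plus 50 nM dopamine (EC20) for 90 min at 37 deg C to detect potentiation. Beta-arrestin recruitment was read as enzyme-fragment luminescence after 1 h at ambient temperature. Full response was set by 57 uM dopamine.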
TRPML1 blocker – qHTS for Inhibitors of the Human Mucolipin Transient Receptor Potential 1 (TRPML1) | 390,000 compounds, 0.02% hits | TRPML1-inducible cells, Ca2+ dye fluorescence, FDSS; stronger effect = lower value; inhibition of EC80 agonist-evoked calcium signal | activity change, negative = inhibition, % (test concentration not listed); in the data active means activity change below about -50%; inconclusive means about -30% to -50%; inactive means above about -30%;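 note: stimulus is agonist 54-4 at its EC80 concentration; % is set by controls: 0 for no effect and ±100 for the full control effect; compound concentration not given in the record; the text of the record puts the active cut at -80%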
Target sequence (Q9GZU1 whole entry, looked up): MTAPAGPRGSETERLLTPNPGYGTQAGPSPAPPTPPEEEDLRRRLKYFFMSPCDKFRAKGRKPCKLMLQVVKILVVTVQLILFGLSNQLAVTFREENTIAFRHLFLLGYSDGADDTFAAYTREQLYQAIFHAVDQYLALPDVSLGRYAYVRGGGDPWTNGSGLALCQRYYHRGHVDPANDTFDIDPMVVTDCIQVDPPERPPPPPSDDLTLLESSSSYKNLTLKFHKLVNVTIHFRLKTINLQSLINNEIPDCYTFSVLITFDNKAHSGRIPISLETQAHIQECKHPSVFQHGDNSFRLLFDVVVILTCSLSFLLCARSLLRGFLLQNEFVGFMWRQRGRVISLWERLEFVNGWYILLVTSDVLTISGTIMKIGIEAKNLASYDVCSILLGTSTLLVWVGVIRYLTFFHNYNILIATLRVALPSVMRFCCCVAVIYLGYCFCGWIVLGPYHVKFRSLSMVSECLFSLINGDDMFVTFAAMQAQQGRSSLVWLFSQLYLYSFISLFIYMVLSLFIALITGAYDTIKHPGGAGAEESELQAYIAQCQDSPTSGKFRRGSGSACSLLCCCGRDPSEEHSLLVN
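Tet-induced TRPML1-DL cells loaded with Ca8 no-wash calcium dye were read kinetically on FDSS. Compound addition was followed by EC80 agonist 54-4 (4 uM final); inhibition was read over 110 s.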
PINK1 modulator – A Quantitative High throughput Screen to Identify Chemical Modulators of PINK1 Expression. PINK1 immunofluorescence, high-content cytometry, 24 h. Potency, µM (series often up to 76.6 µM), for the others: at the top dose activation (PINK1 increase), actives largely listed as activators. 410,000 compounds, 0.2% hits; active = well fitted activation curve with a large enough effect; inconclusive = small, poorly fitted or top-dose-only effect; inactive = flat fitted curve, though single readings scatter; cell line not stated here;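 note: potency is the fitted concentration of half-maximal effect; % of control where 0% means no effect; nearly all actives have a fitted effect of over 65% in size; a mitochondrial uncoupler was the plate control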
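PINK1 protein, normally rapidly degraded, was detected by immunofluorescence after 24 hour compound treatment of a stable cell line. Titration data (5 concentrations) came from laser-scanning cytometry, with CCCP-treated wells as controls.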
D2 ag – Beta-Arrestin HTS for Positive Allosteric Modulators of the Human D2 Dopamine Receptor: Agonists. AID 624465, 2012. activation, % (concentration not given with the values). 360,000 compounds, 0.084% hits. DiscoveRx PathHunter D2 beta-arrestin, luminescence, 90 min; 100% = 57 uM dopamine signal; in the data active = activation above about 40%; inconclusive = about 15% to 40%; inactive = below about 15%; note: the text of the record calls up to 30% inactive
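Agonist mode: compounds alone added to overnight-plated D2 PathHunter cells for 90 min at 37 C, with 57 uM final dopamine (EC100) defining full response. Beta-arrestin recruitment detected by chemiluminescent reagent, read after 1 h at ambient temperature.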
TRPML1 ag – qHTS for Agonists of the Human Mucolipin Transient Receptor Potential 1 (TRPML1); Mucolipin-1 (Homo sapiens), Q9GZU1; TRPML1-expressing cells, Ca2+ dye fluorescence, FDSS; host cell line not named in the record; reference of the full effect not given here; 410,000 compounds, 0.12% hits; activation, % (no concentration beside the values); AID 624414, 2012; in the data active = activation above about 50%; inconclusive = about 30% to 50%; inactive = below about 30%; note: 0% is about no effect; the text of the record puts the active cut at 80%
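Tetracycline-induced TRPML1-DL cells are seeded and incubated overnight before loading with a no-wash Ca2+ dye and quencher. Agonist activity is taken from the 110 s fluorescence read following compound pin-transfer on an FDSS, before EC80 54-4 challenge.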
The depositor's hits bear a star; u = inconclusive; x = not tested or not shown; & = joins results of further samples; [ ] = remark or other dose.

SMILES	Six1-Eya2 inh	D2 potentiator	TRPML1 blocker	PINK1 modulator	D2 ag	TRPML1 ag
C#Cc1ccc([C@H]2C=C(C(=O)N3CCN(Cc4ccccc4)CC3)O[C@@H](OCC)[C@@H]2CCCO)cc1	-3	-8	10	1.9%	0.7	0.3
CCc1ccc(NC(=S)Nc2cccc3cnccc23)cc1	-1	2	-8	0.4%	14	0.3
COc1ccccc1C(=O)NCCN=C1NS(=O)(=O)c2ccccc21	4	-3	2	3.7%	4.7	-0.5
Cc1ccc(-c2nn(C)c(=O)c3ccccc23)cc1S(=O)(=O)NCCN1CCOCC1	-8	-8	-9	3.4%	-4.6	-1.0
CCOC(=O)N1CCC(N(C(=O)Nc2ccc(Cl)c(Cl)c2)C(C)CC)CC1 (stereo unspecified)	-13	5	7	-1.2%[38.3 µM]	1.6	-0.3
Brc1ccc(-c2ncc(-c3ccccc3)cn2)cc1	0	5	u	-0.9%	-3.2	-0.9
Cc1cc(CNC(=O)c2cc(COc3c(F)cccc3F)on2)nn1C	0	-9	2	-0.4%	-2.9	0.4
COC(=O)C1=C(C(=O)OC)[C@@H]2N(C)c3ccc(OC)cc3[C@@]23C[C@@H](C(=O)OC)N(C(=O)c2ccc(Br)cc2)C3=N1	-16	-10	4	u	-4.3	-0.3
CCC(Sc1nc2nccnc2c(=O)n1Cc1ccc(C)cc1)C(=O)NC1CCCCC1 (stereo unspecified)	x	x	-6	0.8%	x	-0.1
Cc1ccc(CN(C)C(=O)CN2C(=O)NC3(CCCC3)C2=O)o1	5	-8	-5	0.7%	-2.9	-0.2
O=C(CSc1ccc(Cl)cc1)N1CCN(c2ccc([N+](=O)[O-])cc2Cl)CC1	-22	-26	77	-0.8%	-1.0	1.0
CC(C)CNS(=O)(=O)c1ccc(OCC(=O)Nc2ccc(F)cc2F)cc1	-5	-10	5	11%	-0.1	0.0
O=C(NCc1ccco1)c1cc2cc(Br)ccc2o1	-1	-7	3	0.3%	-2.0	-0.3
Cc1nc2c3ccccc3nc(NNC(=O)CCC(=O)NC3CCCC3)n2n1	-23	17	6	0.0%	-5.2	0.5
Cc1cc(C)cc(N(C(=O)c2sc(C)nc2C)C(C(=O)NC(C)(C)C)c2ccncc2)c1 (stereo unspecified)	1	-3	4	-0.9%	0.1	-0.3
CC(C)(C)c1ccc(OCC(=O)Nc2ccc3c4c(cccc24)C(=O)NC3=O)cc1	-1	2	17	-2.4%	3.8	2.1
Cc1oc(-c2cc(F)ccc2F)nc1CN1CCN(c2ncnc3ccccc23)CC1	-8	-6	0	0.7%	0.5	4.6
CC(C)OCC(O)CS(=O)Cc1ccccc1 (stereo unspecified)	0	-25	1	x	-1.6	-0.3
O=C(c1ccc(N2CCOCC2)cc1[N+](=O)[O-])N1CCOCC1	5	-3	3	1.9%	-0.7	0.0
Cc1sc2ncnc(N[C@@H](Cc3ccccc3)C(=O)O)c2c1C	2	-4	10	-0.8%	-0.7	-0.2
O=C(Nc1ccc2c(c1)CN(Cc1ccc(CO)o1)CC2)c1ccc(C(F)(F)F)cc1	11	0	-2	1.5%	-1.9	-0.2
COc1ccccc1C(=O)NC(=O)COC(=O)CNC(=O)c1ccccc1F	-2	-4	9	3.3%	-4.7	0.4
C[C@H](NC(=O)c1nc[nH]c1C(=O)N1CCc2ccccc2C1)C(=O)OC(C)(C)C	15	4	28	1.8%	1.5	0.2
c1ccc(-c2cc3c(N4CCN(c5ncccn5)CC4)ncnc3s2)cc1	-3	-19	-8	0.3%	-2.1	-0.5
Cc1cccc(OCCCc2c(C)n[nH]c2C)c1	2	-4	1	-0.8%[38.3 µM]	-3.6	3.8
CCOc1ccccc1C(=O)Nc1ccc2c(c1)N(C)C(=O)c1ccccc1S2	x	x	27	7.2%	x	2.4
O=C(c1cnc2n(c1=O)CCS2)N(c1ccccc1)C1CCCCC1	7	-17	4	0.5%	-0.5	0.0
COc1ccc(Cl)cc1NS(=O)(=O)c1c(C)[nH]c(=O)[nH]c1=O	1	-2	-5	-0.2%&1.1%	-2.4	0.2
O=C(CNC(=O)c1ccc(Br)cc1)OC1CCOC1=O (stereo unspecified)	2	-10	-6	-1.6%	-2.4	-0.3
CC(=O)Nc1ccc(S(=O)(=O)Nc2ccc(Cl)nn2)cc1	9	4	10	0.9%	-3.4	0.6
CCCOc1ccc(OCCOCCN2CCc3ccccc3C2)cc1	-5	1	-7	1.9%	-0.3	-1.5
Cc1cc2nc(C3CCN(Cc4nnnn4Cc4ccccc4)CC3)[nH]c2cc1C	0	-26	-2	-2.0%[38.3 µM]	-1.2	0.4
COc1ccc(C(c2nnnn2C2CCCC2)N2CCC(C)CC2)c(OC)c1 (stereo unspecified)	3	-23	-21	u	-2.6	-0.1
CCCCC1CCC(C(=O)NCc2ccc3c(c2)OCO3)CC1 (stereo unspecified)	4	5	-1	5.2%[38.3 µM]	-3.1	3.0
COC(=O)c1c(C(=O)NCc2ccccc2)ncn1CC(O)COc1ccccc1 (stereo unspecified)	5	-12	5	0.7%	0.1	0.9
CN(C(=O)CSc1ncnc2scc(-c3ccccc3)c12)C1CCS(=O)(=O)C1 (stereo unspecified)	-8	2	-1	0.4%	-0.7	-0.3
C#CC[N+]1(CC#Cc2cccc3ccccc23)CCOCC1	5	-6	2	1.8%	0.4	-0.2
CC(C)CC(=O)Nc1ccccc1OCc1cc(=O)n2ccccc2n1	x	x	4	-0.2%	x	1.3
Cc1cccc(NC(=O)C2CCN(c3cnccn3)CC2)c1	x	x	-2	-0.2%	x	-0.6
COc1ccc(CNc2nc(-c3ccccc3)nc3ccccc23)cc1OC	-4	-1	12	7.6%	2.5	3.0
CCc1ccccc1NC(=O)Nc1c[nH]c(=O)[nH]c1=O	x	x	-4	-0.6%	x	1.9
CCn1c(SCC(=O)Nc2ccc(C)cc2)nc2nc3c(cc2c1=O)COC(C)(C)C3	-8	-11	-1	4.1%	-5.2	0.0
COC(=O)c1ccc(NC(=O)C(=O)N2CCN(C(=S)Nc3ccc(OC)cc3)CC2)cc1	5	-12	21	-3.0%	1.1	0.9
COc1ccc(NC(=O)COC(=O)c2ccc(S(=O)(=O)N(C)c3ccccc3OC)cc2)cc1OC	-11	-1	2	3.4%	-3.8	-1.0
CC(C)C(NC(=O)c1ccccc1NC(=O)c1ccccc1)C(=O)NCCCn1ccnc1 (stereo unspecified)	-6	0	-5	0.8%	1.7	0.6
CC(C)c1ccc(NC(=O)CSC2=Nc3ccccc3C3=NC(CCC(=O)NCc4ccc(F)cc4)C(=O)N23)cc1 (stereo unspecified)	x	x	31	0.5%	x	0.1
O=C(Nc1cccc2ncccc12)c1ccc(-c2ccc(Cl)cc2Cl)o1	-14	-2	34	8.9%[38.3 µM]	-1.1	1.8
CCC(CC)C(=O)c1c[nH]c(C(=O)NCCCn2ccnc2)c1	1	-27	3	0.4%	-7.2	-0.3
CN(C)c1nc(Nc2ccc(Cl)c(Cl)c2)nc(N(C)C)n1	-1	-1	36	4.7%	-1.0	1.5
COc1ccc(C2=C(C)C(N3CCN(C(=O)c4ccco4)CC3)=NS2(=O)=O)cc1	0	-11	3	1.6%	0.2	-0.5

Further structures
SMILES	Six1-Eya2 inh	D2 potentiator	TRPML1 blocker	PINK1 modulator	D2 ag	TRPML1 ag
Cc1cccc(Nc2nc(-c3ccccc3)c(C(=O)Nc3cccnc3)s2)c1	37	-10	22	2.7%	9.2	4.4
CC1(CCC(=O)N2CCCC(N3CCN(c4cccc(C(F)(F)F)c4)CC3)C2)CC1 (stereo unspecified)	6	-15	35	0.2%	2.1	1.1
CCOc1cccc(-c2c(C(=O)N/N=C(\C)c3cccnc3)nnn2-c2nonc2N)c1	2	1	-9	0.8%	-3.0	-0.1
Cc1ccc(C(=O)COc2ccccc2-c2ccccc2)cc1C	14	-1	-12	2.5%	-5.7	1.6
Cc1cccc(-c2ccc3[nH]c4c(c3c2)CCN2C[C@@H]([C@H](C)O)[C@@H](N(C)C(=O)NC3CCCCC3)C[C@@H]42)c1	-18	2	12	5.1%	7.5	1.3
Cc1ccc(NC(=S)NC(=O)c2c(-c3ccccc3Cl)noc2C)cc1	-7	-25	-17	3.9%	-6.6	-0.5
COc1cc(C=NNc2ccc(S(=O)(=O)Nc3ccccc3C(=O)O)cc2[N+](=O)[O-])ccc1O	u	-10	-2	1.5%	2.9	0.1
Cc1cc(N2CCCC2=O)cc(C)c1S(=O)(=O)NCCOc1ccccc1	-2	-8	6	0.3%[38.3 µM]	-0.1	-0.4
CN(CCc1ccccn1)C(=O)CCC1CCCN(C(=O)NC2CCCCC2)C1 (stereo unspecified)	7	-4	-8	-0.6%	-0.3	-0.4
C=CCN1C(=O)C(O)(CC(=O)c2ccc(N)cc2)c2ccccc21 (stereo unspecified)	6	-20	-5	0.6%	-1.4	0.1
O=C(CSCc1ccc(Cl)cc1)N/N=C/c1ccc(Cl)cc1Cl	4	-6	4	-0.7%	0.3	-0.1
O=C(O)c1cc(S(=O)(=O)N2CCN(S(=O)(=O)c3ccc4ccccc4c3)CC2)ccc1Br	-9	-4	-5	2.5%	-1.3	-0.6
COC(=O)c1ccc(Oc2c(Cl)cccc2[N+](=O)[O-])cc1	-12	-13	8	1.6%	-1.7	3.0
CN1CCN(c2ccc(-c3cc(NC=O)c4ncc(-c5ccc(F)cc5)n4c3)cc2)CC1	-10	-5	x	0.3%	11	3.1
COc1ccc(-n2nc(C(=O)NCC(=O)NCc3ccco3)c3ccccc3c2=O)cc1	5	-6	24	-2.0%	-0.5	-1.0
Cc1c(NC(=O)CN(C)CC(=O)Nc2ccc(F)c(F)c2F)c(=O)n(-c2ccccc2)n1C	0	-6	66	-3.3%	-3.1	-0.6
CN1CC2(C)OC(=O)C(Cl)=C2CC1c1ccccc1 (stereo unspecified)	2	8	u	9.2%	-0.3	0.6
